Bioassay records deposited in PubChem BioAssay by ICCB-Longwood Screening Facility, Harvard Medical School.
PV pol inh: poliovirus RNA polymerase inhibition. poliovirus polymerase elongation, fluorescence polarization; active compounds read low. hit rate 0.66% among 150,000. % elongation, % (compound at 16.7 µg/mL). AID 588519. P03300; in the data active = % elongation below about 90%; note: some results filed as inactive read as strong as hits
Target sequence (P03300 1749-2209 limits assumed): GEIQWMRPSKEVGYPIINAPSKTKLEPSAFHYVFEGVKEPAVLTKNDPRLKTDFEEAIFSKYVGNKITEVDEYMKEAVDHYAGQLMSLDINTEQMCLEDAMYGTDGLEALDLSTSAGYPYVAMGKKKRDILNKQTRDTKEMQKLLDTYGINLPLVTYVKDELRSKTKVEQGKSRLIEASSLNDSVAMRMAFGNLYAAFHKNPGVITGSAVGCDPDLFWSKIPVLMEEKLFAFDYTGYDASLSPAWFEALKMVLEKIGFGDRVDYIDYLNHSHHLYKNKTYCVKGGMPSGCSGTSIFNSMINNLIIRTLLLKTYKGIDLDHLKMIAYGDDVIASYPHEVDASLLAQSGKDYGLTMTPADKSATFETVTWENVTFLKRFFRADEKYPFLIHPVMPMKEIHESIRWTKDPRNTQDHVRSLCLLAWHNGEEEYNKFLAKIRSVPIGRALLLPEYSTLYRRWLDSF
PV pol inh intensity: second read-out of PV pol inh, no call of its own (marks repeat the call); % elongation; measured here: total intensity read-out; formula for this scale not given here;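 total fluorescence in place of polarization; lower means less elongation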
* hit, by the source's call. These rows are one share of the data. The share of hits here may be higher or lower than overall.

canonical_smiles	PV pol inh	PV pol inh intensity
CC(=O)c1ccc(NC(=O)C2CCC(CNS(=O)(=O)c3ccc4c(c3)CCCC(=O)N4)CC2)cc1 (configuration not stated)	107	111
CCc1ccc(C2C(C(=O)Nc3ccccc3OC)=C(C)Nc3nc(SCc4ccccc4)nn32)cc1 (configuration not stated)	111	111
CCOc1ccccc1NC(=O)CN(c1cc(C)cc(C)c1)S(=O)(=O)c1c(C)nn(C)c1C	108	106
CC(=O)c1cc(-c2ccc(F)cc2)n(CC(=O)Nc2cc(C)cc(C)c2)c1C	104	112
Cc1ccc(NC(=O)C2CCN(c3nnc(-n4cccc4)s3)CC2)cc1Cl	100	106
NC(=O)Cn1c(=O)n(CCCCCC(=O)NCc2ccccc2Cl)c(=O)c2sccc21	108	113
CCCCN(CCCC)CCn1cnc2c([nH]c3ccc(OC)cc32)c1=O	104	98
COc1ccc(N2CC(NC(=O)c3ccc(S(=O)(=O)N4CCOCC4)cc3)CC2=O)cc1OC (configuration not stated)	101	104
CCCCOc1ccc(CNC(=O)Cc2ccc(NC(=O)N3CCCCc4ccccc43)cc2)cc1	105	105
Cc1cc(C)c(-c2n[nH]c3c2C(c2ccccc2F)N(CCO)C3=O)c(O)c1 (configuration not stated)	108	112
CCN(CC)S(=O)(=O)c1ccc2c(c1)nc(CN(C)C(=O)Nc1ccc(C)c(Cl)c1)n2C	102	94
CC1CCCCN1S(=O)(=O)c1ccc(C(=O)Nc2sc3c(c2C(N)=O)CC(C)(C)NC3(C)C)cc1 (configuration not stated)	106	106
CC1=C(C(=O)OC2CCCCCC2)C(c2ccc(Cl)cc2)CC(=O)N1 (configuration not stated)	110	112
Cc1cccc(N2CCN(C(=O)c3ccc(Nc4nc5ccccc5n5nnnc45)cc3)CC2)c1C	104	107
O=C(c1ccccc1Cl)N(Cc1ccco1)Cc1ccco1	108	109
O=C(Cc1ccc(F)cc1)NC1CC(=O)N(c2ccc3c(c2)OCCO3)C1 (configuration not stated)	102	103
CCOc1ccc2nc(N3CCCC(C(=O)Nc4c(C)cccc4C)C3)sc2c1 (configuration not stated)	105	111
CCc1ccc2nc(N3CCN(C(=O)c4ccccc4)CC3)sc2c1	111	114
O=C(Cn1c(=O)oc2cc(S(=O)(=O)N3CCCCCC3)ccc21)NCc1ccccc1Cl	104	109
COc1cc(C2C(C(=O)Nc3ccccc3)=C(C)Nc3nc(SCC(=O)c4ccc(C)cc4)nn32)ccc1O (configuration not stated)	110	111
O=C(Nc1ccc(F)c(Cl)c1)C1Cc2ccccc2CN1S(=O)(=O)c1ccc(F)cc1 (configuration not stated)	113	114
CCc1ccc2oc(C(=O)NCCc3ccc(OC)c(OC)c3)cc(=O)c2c1	109	107
CCc1ccccc1NC(=O)c1cnc(N2CCCCC2)c2ccccc12	110	106
Cc1ccc(NC(=O)c2oc3ccccc3c2NC(=O)Cc2ccccc2)cc1	110	112
COc1cccc(N2CCN(C(=O)CN3C(=O)COc4ccc(S(=O)(=O)N5CCC(C)CC5)cc43)CC2)c1	107	112
CC(NC(=O)c1ccc2c(c1)N(Cc1ccc(Cl)cc1)C(=O)CS2)c1ccccc1 (configuration not stated)	104	108
COC(=O)Cc1c(C)c2ccc3c(c2oc1=O)CN(Cc1ccccc1OC)CO3	108	97
O=C(O)c1ccc(CNCc2ccc(Cl)cc2)s1	106	108
Fc1cccc(-n2ncc3c2ncn2nc(Cc4ccccc4)nc32)c1	108	88
Cc1ccc(S(=O)(=O)c2nc(-c3ccco3)oc2SCC(=O)Nc2ccc(F)cc2)cc1	106	109
CC(=O)C1=C(c2ccc(C)c(C)c2)N(C(C)=O)n2c(nnc2-c2ccc(Cl)cc2)S1	109	108
Cc1cc2oc3c(c(=O)c2cc1C)C(c1ccc(C(C)C)cc1)N(c1nc(C)c(C)s1)C3=O (configuration not stated)	104	103
COc1cccc(N2CC(NC(=O)/C=C\c3ccc4c(c3)OCO4)CC2=O)c1 (configuration not stated)	81*	77*
COC(=O)c1ccccc1NC(=O)CSc1c2c(nc3ccc(Cl)cc13)CCCC2	106	109
COc1ccc(CCNC(=O)CCCn2c(=O)c3ccccc3n(Cc3ccccc3C#N)c2=O)cc1OC	108	112
CCCCS(=O)(=O)c1nc(-c2ccc(Br)cc2)cc(-c2ccccc2)c1C#N	104	105
Cc1cccc(NC(=O)c2ccc(CNS(=O)(=O)c3ccc4c(c3)C(C)(C)C(=O)N4C)cc2)c1	113	114
Cc1csc2nc(COC(=O)c3ccc(F)cc3)cc(=O)n12	109	115
COc1ccc(Nc2nc(N)c3cc(OC)c(OC)cc3n2)cc1	106	110
COc1ccc(NC(=O)c2cc(C3CC3)nc3c2c(C)nn3-c2ccccc2)cc1OC	108	110
COc1cc(OC)c(NC(=O)N2CCc3c([nH]c4ccccc34)C2c2ccccc2F)cc1Cl (configuration not stated)	106	109
CCCn1c(=O)sc2cc(NC(=O)c3ccccc3Cl)ccc21	113	114
CCCCOc1cccc(C2c3c(-c4cc(C)ccc4O)n[nH]c3C(=O)N2CCOC)c1 (configuration not stated)	110	117
COc1ccc(-c2nc3scc(CCNS(=O)(=O)c4ccc(Oc5ccccc5)cc4)n3n2)cc1OC	104	100
COc1ccc(-c2noc(-c3ccc(C)cc3Cl)n2)cc1OC	102	96
CC(C)CC(C(=O)NCc1ccc(F)cc1)N1Cc2ccccc2C1=O (configuration not stated)	103	109
Cc1ccc(CNC(=O)CCCN2C(=O)CCn3nc(-c4cccn4C)cc32)cc1	101	100
Cc1ccc(-n2nc(CO)c(C(=O)NCCCc3ccccc3)n2)cc1C	109	109
CC(=O)N1CCc2cc(S(=O)(=O)NC(Cc3ccccc3)C(=O)Nc3ccc(C)cc3C)ccc21 (configuration not stated)	104	107
Cc1ccc(-n2nc(C(=O)N3CCN(c4cc(C)ccc4C)CC3)c3c4ccccc4n(C)c3c2=O)cc1	109	106
COc1ccc(NC(=O)C2CCCN(S(=O)(=O)c3ccc(Br)s3)C2)cc1 (configuration not stated)	109	110
CCOc1ccc(C2C(=O)N(C3CCCCC3)CC(=O)N2Cc2ccccc2OC)cc1OC (configuration not stated)	110	108
O=C(Nc1ccccc1-c1nc2ccccc2s1)c1ccc(F)cc1	107	111
Cc1ccc2nc(NC(=O)c3ccc(S(=O)(=O)N4CCC(C)CC4)cc3)sc2c1	103	108
CCOC(=O)c1noc2ncnc(N3CCN(c4cccc(C(F)(F)F)c4)CC3)c12	110	107
COc1cc(/C=C/c2nc3cc(Cl)ccc3c(=O)n2-c2ccc(C)cc2C)cc(OC)c1OC	110	113
Cc1cccc(NC(=O)c2oc3ccccc3c2NC(=O)Cc2coc3c(C)c(C)ccc23)c1	119	110
CCOC(=O)c1cccc(NC(=O)CCS(=O)(=O)c2ccc(Br)s2)c1	107	111
CCOC(=O)Cn1c(=O)oc2cc(S(=O)(=O)N3CCN(c4ccc(C(C)=O)cc4)CC3)ccc21	107	115
Cc1c(Cl)cccc1NC(=O)CC(c1cccs1)N1Cc2ccccc2C1=O (configuration not stated)	109	107

Going on with the list.
canonical_smiles	PV pol inh	PV pol inh intensity
COC(=O)c1nc2n(n1)C(c1cc(OC)ccc1OC)C=C(c1ccc(Br)cc1)N2 (configuration not stated)	104	114
O=C(Cn1c(=O)oc2cc(S(=O)(=O)NCc3ccccc3)ccc21)NCc1ccc(F)cc1	106	112
Cc1nc2cccnc2n1C1CCN(C(=O)Nc2ccccc2)CC1	103	108
CCOc1ccccc1NC(=O)Cn1c(=O)n(CCCCC(=O)NCCCOC)c(=O)c2ccccc21	100	95
CCCCn1c(CNC(=O)C23CC4CC(CC(C4)C2)C3)nnc1SCC(=O)Nc1ccc(F)cc1	105	107
Cc1cccc(NC(=O)CN(C)S(=O)(=O)c2cnc[nH]2)c1C	108	112
CC(C)COc1ccc(-c2nonc2NC(=O)c2ccc(F)cc2)cc1	104	101
Cc1nc2c(c(C)c1CCC(=O)Nc1ccc(F)cc1)c(=O)n(C)c(=O)n2C	109	111
CCc1ccccc1NC(=O)CCCN1C(=O)COc2ccc(C)cc21	107	110
COc1ccc(C)cc1NS(=O)(=O)c1cnc(N)nc1	112	104
CCOc1ccc(C(=O)NCCS(=O)(=O)N2CCN(c3cccc(Cl)c3)CC2)cc1	109	103
CCOc1cc(CNC(=O)c2ccc(Cn3c(=O)c4cccn4c4cccnc43)cc2)ccc1OC	110	114
CC(=O)N1c2ccc(S(=O)(=O)NCC3CCC(C(=O)Nc4cccc(C)c4)CC3)cc2CC1C (configuration not stated)	118	111
COc1ccc(C(=O)NCCn2cc(SCC(=O)Nc3ccc4c(c3)OCCO4)c3ccccc32)cc1OC	105	108
CCCCN(C)c1nnc(NC(=O)Nc2cccc(C(C)=O)c2)s1	104	103
Cc1ccc(N2C(=O)CS(=O)(=O)C23C(=O)N(Cc2ccccc2F)c2ccccc23)cc1Cl (configuration not stated)	105	105
Cc1ccc2c(c1)N(C(=O)CCC(=O)NCc1cccs1)CCO2	106	110
CCOC(=O)c1c(Nc2ccc(OC)cc2)nnc(-c2ccccc2)c1-c1ccccc1	108	107
Cc1ccc(NC(=O)CSc2nc(=O)n(CCN3CCOCC3)c3c2CCC3)cc1Cl	105	111
CCCN1CCN(c2nnc(-n3cccc3C(=O)Nc3cc(Cl)ccc3C)s2)CC1	99	103
CSc1ccc(C2CC(=O)Oc3c2c(=O)n(C)c2ccccc32)cc1 (configuration not stated)	104	107
CCCCNC(=O)CN1CCN(c2ncc(NC(=O)c3ccc(Cl)cc3)cc2C(=O)O)CC1	106	106
Cc1ccc(-c2onc(C)c2C)cc1S(=O)(=O)N1CCOc2ccc(Cl)cc21	108	100
Cc1ccc(NC(=O)Cn2c(=O)oc3ccccc32)cc1Cl	99	102

The final four entries of the part above lead into the next:
canonical_smiles	PV pol inh	PV pol inh intensity
CSc1ccc(C2CC(=O)Oc3c2c(=O)n(C)c2ccccc32)cc1 (configuration not stated)	104	107
CCCCNC(=O)CN1CCN(c2ncc(NC(=O)c3ccc(Cl)cc3)cc2C(=O)O)CC1	106	106
Cc1ccc(-c2onc(C)c2C)cc1S(=O)(=O)N1CCOc2ccc(Cl)cc21	108	100
Cc1ccc(NC(=O)Cn2c(=O)oc3ccccc32)cc1Cl	99	102
Cc1cccc(OCc2nc(CC(=O)Nc3ccc(Cl)cc3)cs2)c1	109	116
COC(=O)C1=C(C)NC(=O)NC1c1cn(-c2ccccc2)nc1-c1ccc(OC)c(Br)c1 (configuration not stated)	103	105
Cc1ccc(NC(=O)c2nc(-c3ccncc3)no2)c(Cl)c1	111	107
CCC(=O)N1c2ccc(S(=O)(=O)CCC(=O)N3CCN(c4cc(C)ccc4C)CC3)cc2CC1C (configuration not stated)	109	111
CCN(CC)c1nn2c(=O)c(C(=O)NCc3cccc(C)c3)cnc2s1	105	104
COc1cc2c(cc1OC)C(COc1ccccc1OC)N(C(=O)c1ccc(S(=O)(=O)N(C)C)cc1)CC2 (configuration not stated)	100	96
CCN(CC)S(=O)(=O)c1ccc2c(c1)N(CC(=O)Nc1c(C)cc(C)cc1C)C(=O)C1CCCN21 (configuration not stated)	107	116
O=C(CSc1nc2c([nH]c3ccccc32)c(=O)n1-c1ccccc1)N1CCCCCC1	108	109
O=C(O)CSc1nc2ccccc2nc1N1CCCCC1	102	107
CCOC(=O)C(CC)N1CCN(Cc2ccc(F)cc2)C(=O)C1=O (configuration not stated)	110	103
COc1ccc(Nc2sc(C(=O)c3ccccc3)c(N)c2C(=O)Nc2cc(C)ccc2C)c(OC)c1	104	107
COc1ccc(N(CC(=O)N2CCCCC2)S(=O)(=O)c2ccc(OC)c(OC)c2)cc1	105	107
O=C(NCCc1ccccc1)C1CCC(CNS(=O)(=O)c2ccccc2)CC1 (configuration not stated)	103	108
COc1cccc(Cn2c(Oc3cc(C)cc(C)c3)nc3c2c(=O)n(C)c(=O)n3C)c1	113	114
CCn1cc(/C=C(\NC(=O)c2ccccc2Cl)C(=O)NCCCn2ccnc2)c2ccccc21	102	100
Fc1ccc(-n2cc(-c3ccccc3)c3c(NC4CCCCC4)ncnc32)cc1	106	112
COc1ccc(S(=O)(=O)N(CC(=O)Nc2ccc(OC)cc2OC)c2ccc(Cl)cc2)cc1	105	106
CCn1cc(C(=O)N2CCN(c3cccc(Cl)c3)CC2)c(=O)c2cc(S(=O)(=O)N3CCC(C)CC3)ccc21	110	110
CCOC(=O)c1cc(C)n(CC2CCC(C(=O)Nc3ccc(C)c(F)c3)CC2)c1C (configuration not stated)	105	110
CCN(CCCNC(=O)CSc1cc(=O)n(CC)c2ccccc12)c1ccccc1	105	106
Cc1ccc(NC(=O)c2ccc(COc3ccccc3Cl)o2)cc1	103	117
O=c1n(Cc2ccc(F)cc2)nc2n1-c1cc(Cl)ccc1OC2	106	108
NC(=O)c1nc(Nc2ccccc2)sc1NC(=O)c1ccccc1Br	109	107
Cc1nc(NC(=O)c2c(-c3ccccc3)c(-c3ccccc3)nn(C)c2=O)sc1C	108	112

A draw from above in order of length of the SMILES, ascending:
canonical_smiles	PV pol inh	PV pol inh intensity
NC(=O)c1nc(Nc2ccccc2)sc1NC(=O)c1ccccc1Br	109	107
Cc1nc(NC(=O)c2c(-c3ccccc3)c(-c3ccccc3)nn(C)c2=O)sc1C	108	112
CCn1cc(/C=C(\NC(=O)c2ccccc2Cl)C(=O)NCCCn2ccnc2)c2ccccc21	102	100
CCn1cc(C(=O)N2CCN(c3cccc(Cl)c3)CC2)c(=O)c2cc(S(=O)(=O)N3CCC(C)CC3)ccc21	110	110
